Screens as filed in PubChem BioAssay.
PABP polyA inh: blocks human PABP binding to poly(A) RNA. fluorescence polarization. P11940. inhibition, % at 35 µM. 1% of 290,000 active;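 active = 50% or more with normal probe brightness, or confirmed in later tests; about a fifth of its hits are not listed in these tables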;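 also: calls also rest on retests at 20 µM and on dose response follow-up; controls were probe without protein and protein plus probe with vehicle; some compounds called inactive have numbers as strong as hits; many hits fall short of the cut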
Target sequence (P11940 whole entry, looked up): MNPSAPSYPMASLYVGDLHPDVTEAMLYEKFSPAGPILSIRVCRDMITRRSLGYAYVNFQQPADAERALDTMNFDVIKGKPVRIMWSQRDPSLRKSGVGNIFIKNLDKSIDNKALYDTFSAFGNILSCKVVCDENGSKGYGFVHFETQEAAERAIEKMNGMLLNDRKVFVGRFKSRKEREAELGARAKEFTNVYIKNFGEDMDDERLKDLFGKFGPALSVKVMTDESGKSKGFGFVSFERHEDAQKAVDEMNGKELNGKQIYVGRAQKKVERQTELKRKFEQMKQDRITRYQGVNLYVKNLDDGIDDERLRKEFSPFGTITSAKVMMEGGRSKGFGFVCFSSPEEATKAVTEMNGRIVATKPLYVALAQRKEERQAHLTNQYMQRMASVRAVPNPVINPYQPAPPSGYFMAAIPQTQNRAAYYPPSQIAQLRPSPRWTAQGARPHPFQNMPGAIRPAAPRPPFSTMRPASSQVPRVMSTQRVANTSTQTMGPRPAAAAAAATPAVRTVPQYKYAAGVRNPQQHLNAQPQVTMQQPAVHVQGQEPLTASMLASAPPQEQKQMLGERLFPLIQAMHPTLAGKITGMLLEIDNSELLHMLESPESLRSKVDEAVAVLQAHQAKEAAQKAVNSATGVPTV
MT1-MMP act inh: blocks activation of human MT1-MMP. 0.061% of 360,000 active. AID 651647. GFP/RFP ratio change, % at 20 µM. HT1080 RFP-PRO-GFP cells, GFP/RFP ratio fluorescence, overnight; percent of plate control window, DMSO zero;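 active = GFP/RFP ratio change of at least 30% with cell ATP level not reduced by more than half and red fluorescence within 50% of control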; also: strong numbers were not always called active
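Test system: HT1080 cells expressing an RFP-PRO-GFP fluorescent reporter construct / Compound dosing: single-point 20 µM compound, 1% DMSO / Schedule: cells overnight before dosing, compound overnight, 37 °C, 5% CO2 / Evaluation: GFP/RFP fluorescence ratio / Control set: DMSO and RFP-L50D-GFP cell wells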
UUG fidelity: yeast start codon fidelity modulation; activity score, % at 18.7 µM; S. cerevisiae UUG-firefly luciferase reporter, luminescence/redox ratio; AID 602363; 0.13% of 350,000 active;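 active = replicate mean at a twofold rise or more, about +100% in these data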;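 also: firefly luciferase made from a UUG start codon reports start codon fidelity; reporter light over untreated wells divided by growth signal over untreated wells; some hits fall short of that in this replicate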
CSC inhib: cancer stem cell inhibition; 1.1% of 300,000 active; cancer stem cell-like cells viability, luminescence; inhibition, % at 7.5 µM;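 active = mean at 75% or more and at least half the replicates too; tested in HMLE shEcad cells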;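 also: 0% = median of negative and 100% = median of positive control wells; the first replicate is given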
Env fusion inh: inhibitors of HIV Env-mediated cell fusion; HeLa-JRFL Env/CEM21 cell fusion, luciferase; inhibition, % at 12.3 µM; 1.1% of 360,000 active; AID 651610;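 active = mean replicate inhibition score of at least 50 and every replicate individually at or above 50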;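 also: 0% = plate neutral controls and 100% = maraviroc near 300 nM; one replicate is shown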
eIF4H inh: inhibitors of RNA binding by human eIF4H; Q15056; eIF4H fluorescence polarization binding assay; inhibition, % at 35 µM; 0.94% of 290,000 active; AID 2012;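 active = 50% or more with normal probe brightness, or confirmed in later tests; about a fifth of its hits are not listed in these tables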;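 also: calls also rest on retests at 20 µM and on dose response follow-up; 0% = protein and probe with vehicle and 100% = probe without protein; strong numbers were not always called active; many hits fall short of the cut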
Rce1 inh: blocks yeast Ras-converting enzyme | 0.27% of 290,000 active | Q03530 | calls only | yeast membranes, quenched prenylated peptide cleavage fluorescence;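 active = fall in fluorescence gain of 50% or more versus controls, with final raw signal at or below 3038400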;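 also: plate controls were neutral control wells for no effect and wells lacking membranes for full effect; tested at 10 µM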
Target sequence (Q03530 whole entry, looked up): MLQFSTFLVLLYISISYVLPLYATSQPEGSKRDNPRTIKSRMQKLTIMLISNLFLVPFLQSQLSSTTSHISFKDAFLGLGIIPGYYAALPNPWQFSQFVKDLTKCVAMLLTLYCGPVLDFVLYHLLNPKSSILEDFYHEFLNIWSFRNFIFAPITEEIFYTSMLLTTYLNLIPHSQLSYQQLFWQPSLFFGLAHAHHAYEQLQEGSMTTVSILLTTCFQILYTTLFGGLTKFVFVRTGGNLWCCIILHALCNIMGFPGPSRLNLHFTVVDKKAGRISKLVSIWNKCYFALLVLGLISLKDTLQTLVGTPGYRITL
eIF4H inh retest: recorded beside eIF4H inh, whose call it bears; inhibition, %; compound at 20 µM; confirmation average;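 mean of two retest wells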
PABP polyA inh retest: also measured in PABP polyA inh; calls as there; inhibition, %; compound at 20 µM; confirmation repeats;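 mean of two retest wells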
MT1-MMP act inh RFP: second read-out of MT1-MMP act inh, no call of its own (marks repeat the call); RFP signal change, %; measured here: RFP expression control read;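 0 = vehicle wells; hits needed this value within 50% of zero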
Active calls of the source: *; i = inactive; . = no result given. Outcome played no part in choosing rows; overall some 3% were active at least once.

SMILES | PABP polyA inh | MT1-MMP act inh | MT1-MMP act inh RFP | UUG fidelity | CSC inhib | Env fusion inh | eIF4H inh | Rce1 inh | others
CCc1ccccc1NC(=O)[C@@H]1CCC(=O)N1C1OC(=O)c2ccccc21 (stereo partly drawn) | 3 | 0 | 3 | -6 | -9 | . | -4 | .
Cc1ccc(N2CC(C(=O)Nc3nnc(SCC(N)=O)s3)CC2=O)cc1C (stereo not drawn) | -2 | 1 | 4 | -18 | -4 | . | 9 | i
CC(C)Cc1nc(N2CCN(C(=O)c3ccccc3)CC2)c(C#N)c2c1CCC2 | -3 | -9 | -17 | -7 | 7 | 13 | 3 | i
COc1cccc(CC(=O)Nc2ccc(-c3csc(C)n3)cc2)c1 | 13 | 2 | -3 | -14 | 5 | -6 | -1 | i
CS(=O)(=O)Nc1nc2ccccc2[nH]1 | 14 | 1 | 0 | -1 | 1 | 15 | 2 | i
CC1CCCCN1C(=O)CSc1nc2ncccc2[nH]1 (stereo not drawn) | 1 | -2 | 4 | 6 | 3 | 0 | -15 | i
Cc1nc2c(OCC(=O)c3ccc(F)cc3)cccn2c1N(C)Cc1cccs1 | . | -1 | 1 | -19 | . | -6 | . | .
COC(=O)c1cccnc1Oc1ccccc1 | 4 | 0 | -2 | -5 | 8 | 3 | 7 | i
COc1ccc(NC(=O)COc2ccc(C(=O)NCc3cccnc3)cc2OC)cc1 | . | 4 | -1 | -8 | 1 | -5 | . | .
Cc1ccccc1C1C2=C(Nc3[nH]n(-c4ccccc4)c(=O)c31)c1ccccc1C2=O (stereo not drawn) | 9 | . | . | . | 13 | . | 6 | .
O=C1/C(=C\c2cccs2)Sc2ccc3ccccc3c21 | -3 | -6 | 8 | . | -3 | -215 | 13 | i
Cc1cccc(C)c1NC(=O)Nc1cccs1 | 22 | -3 | 3 | -4 | 25 | . | 5 | i
Cc1cc(-c2ccc([N+](=O)[O-])cc2)nc2ccccc12 | 3 | 0 | 0 | . | -10 | -8 | -1 | i
Fc1ccccc1Nc1nc2ccccc2n2nnnc12 | 53 | -5 | 4 | -21 | -5 | -22 | 45 | i | eIF4H inh retest=49;PABP polyA inh retest=44
CN(C)S(=O)(=O)c1ccc(C(=O)N2CC(=O)Nc3ccc(F)cc3C2c2ccc(F)cc2)cc1 (stereo not drawn) | 5 | -11 | -7 | -4 | -1 | 10 | -9 | i

Brought forward from above: three entries, then new ones.
SMILES | PABP polyA inh | MT1-MMP act inh | MT1-MMP act inh RFP | UUG fidelity | CSC inhib | Env fusion inh | eIF4H inh | Rce1 inh | others
Cc1cc(-c2ccc([N+](=O)[O-])cc2)nc2ccccc12 | 3 | 0 | 0 | . | -10 | -8 | -1 | i
Fc1ccccc1Nc1nc2ccccc2n2nnnc12 | 53 | -5 | 4 | -21 | -5 | -22 | 45 | i | eIF4H inh retest=49;PABP polyA inh retest=44
CN(C)S(=O)(=O)c1ccc(C(=O)N2CC(=O)Nc3ccc(F)cc3C2c2ccc(F)cc2)cc1 (stereo not drawn) | 5 | -11 | -7 | -4 | -1 | 10 | -9 | i
O=C(Nc1ccc2nc(N3CCOCC3)sc2c1)c1cc2ccccc2o1 | . | -3 | -5 | -7 | . | 15 | . | .
O=C(NCCc1ccccc1)c1ccc(CS(=O)(=O)Cc2ccc(F)cc2)o1 | 8 | -1 | -2 | 0 | -1 | 8 | 1 | i
Cc1cc(N(CCO)CCO)nc(-n2nc(C)cc2C)n1 | 11 | 2 | -1 | -19 | . | . | -6 | i
C=CCN1C(=O)C(O)(CC(=O)c2ccc(-n3cccc3)cc2)c2ccccc21 (stereo not drawn) | 5 | 10 | 2 | -18 | 12 | . | -2 | i
CC(Sc1nccn1C)C(=O)c1ccc(Br)cc1 (stereo not drawn) | 8 | 0 | -1 | -11 | -5 | -7 | -8 | i
CCOC(=O)c1cn(CC(=O)Nc2cccc(F)c2)nn1 | -2 | 4 | 5 | . | -17 | -1 | 4 | i
CC1CN(C(=O)CCC(=O)NC2CCN(Cc3ccccc3)CC2)c2ccccc2O1 (stereo not drawn) | -12 | 6 | 7 | -7 | 2 | . | -16 | i
Cc1ccnc(NC(=O)c2cccc(NS(=O)(=O)c3ccccc3C)c2)c1 | 2 | -4 | -4 | -18 | . | . | -5 | .
COc1ccc(CNC(=O)c2nccnc2CO)cc1 | -5 | 2 | -1 | -8 | -2 | -11 | -8 | i
O=C(NC1CCCCC1)C1CCCN(S(=O)(=O)c2ccc(Br)s2)C1 (stereo not drawn) | -12 | -2 | -2 | . | -11 | 14 | -6 | i
Cc1cc(OCC(=O)Nc2ccncc2)cc(C)c1Cl | -4 | 9 | -31 | -15 | 16 | 8 | -14 | i
CCCOC(=O)CC1C(=O)NCCN1Cc1cc(OC)cc(OC)c1 (stereo not drawn) | 0 | 4 | 4 | . | -2 | 13 | 0 | i
CCOc1cc(NC(=S)NCc2ccco2)c(OCC)cc1NC(C)=O | -9 | 6 | -3 | -15 | -22 | . | -8 | i
COc1ccc(NC(=O)C(=O)NCCO)cc1Cl | -3 | 7 | 0 | . | -1 | -22 | 2 | i
Cc1cc(C)n2nc(CC(=O)NCc3ccccc3Cl)nc2n1 | -2 | 3 | 4 | . | -11 | . | -2 | i
CCCCc1cc(=O)oc2cc(C)cc(OCC(=O)Nc3cccnc3)c12 | . | 0 | -5 | 5 | -10 | -5 | . | i
CCCCCNS(=O)(=O)c1cc(C)ccc1OC | 2 | 2 | 4 | . | -2 | 10 | 3 | i
CCN(CC)S(=O)(=O)c1ccc(N2CCCC2)c(NC(=O)c2ccc(N3CCCC3=O)cc2)c1 | . | 2 | 1 | . | -11 | 4 | . | i
COCCCn1c(SCC(=O)Nc2ccc(NC(C)=O)cc2)nc2sc3c(c2c1=O)CCC3 | -4 | -4 | 0 | -12 | 0 | 13 | 3 | i
O=c1nc2c(O)cccn2c2c1c(=O)[nH]c1ccccc12 | -8 | -53 | 6 | -21 | . | . | 80 | i | eIF4H inh retest=-1;PABP polyA inh retest=8
Cn1cc(-c2csc(C(O)c3ccc(F)c(F)c3)n2)cn1 (stereo not drawn) | . | 0 | 0 | -7 | . | 13 | . | .
O=C(Nc1cccc(Cl)c1)c1ccc(OC(=S)N2CCOCC2)cc1 | -9 | -5 | -24 | . | -11 | 24 | -4 | i
Cc1ccc(COc2ccccc2C(=S)N2CCCC2)cc1 | 1 | -4 | -3 | -19 | -6 | 3 | -4 | i
CC(Oc1ccccc1F)C(=O)NNC(=O)CCNC(=O)c1ccco1 (stereo not drawn) | . | 2 | 1 | -12 | -12 | -14 | . | i
CC(C)Cn1cnc2c(SCc3ccccn3)nc(N)nc21 | . | 1 | 1 | -16 | . | -3 | . | .
COc1cc(SC#N)ccc1N=Cc1c(C)[nH]n(-c2ccc(C)cc2C)c1=O | 10 | -6 | -4 | -14 | 0 | . | 0 | i
CC(=O)NC(CCc1ccc(Cl)c(Cl)c1)c1cccc(O)c(=O)c1 (stereo not drawn) | . | 5 | -5 | -23 | . | 22 | . | .
CC(C)C(NC(=O)OCc1ccccc1)C(=O)N1CCOCCOCCOCC1 (stereo not drawn) | -4 | 5 | 5 | . | -13 | 18 | 6 | i
COc1ccc(NS(=O)(=O)c2ccc(NC(C)=O)cc2)c(OC)c1 | -2 | 2 | 2 | . | 6 | 2 | -4 | i
O=C(Nc1ccccc1N1CCCC1)C1CCN(C(=O)c2ccc(F)cc2)CC1 | . | 2 | -2 | -27 | -10 | . | . | i
CCOC(=O)N1CCN(C(=O)Nc2ccc3oc(C)nc3c2)CC1 | -9 | 1 | 2 | -3 | -10 | . | -7 | i
CCOc1ccc(-n2c(SCC(=O)NCc3ccco3)nc3ccccc3c2=O)cc1 | 7 | -4 | 1 | . | -4 | 12 | 10 | i
Cc1cccc2cc(C(c3nnnn3Cc3ccccc3)N3CCN(C)CC3)c(=O)[nH]c12 (stereo not drawn) | 16 | 10 | 0 | -10 | . | . | 2 | i
Cc1cc(C)c(NC(=O)CS(=O)CC(=O)N2CCN(c3cccc(C)c3C)CC2)c(C)c1 (stereo not drawn) | 9 | 2 | -6 | -6 | 4 | 5 | 2 | i
CCCCNC(=O)CSc1nc2ccc(N3CCOCC3)cc2c(=O)n1Cc1ccc(OC)cc1 | 1 | 7 | -2 | -20 | . | 3 | 24 | .
O=C(CSCc1ccccc1)NNc1c(F)c(F)cc(F)c1F | -2 | -2 | 0 | 0 | 7 | -113 | -2 | i
COC(=O)/C(C#N)=C/c1c(N2CCCCCC2)nc2c(C)cccn2c1=O | -1 | -2 | 0 | -10 | . | 5 | 6 | i
O=C(CCn1c(=O)oc2ccccc21)Nc1cccc([N+](=O)[O-])c1 | 2 | 0 | 3 | -10 | -2 | . | -5 | i
Nc1ccccc1-c1nnc(SCC(=O)Nc2ccccc2OC(F)F)[nH]c1=O | . | 2 | -2 | -35 | -18 | 11 | . | .
CCOc1ccc(NC(=O)NNC(=O)c2ccc3ccccc3c2O)cc1 | 5 | -1 | 5 | 0 | -9 | -7 | 3 | i
CCOC(=O)N1CCN(C(=O)CSc2ccc3nnc(-c4ccccn4)n3n2)CC1 | -7 | 0 | 2 | -18 | . | 1 | -4 | i
CN(C)S(=O)(=O)c1ccc(C(=O)NNC(=O)C2COc3ccccc3O2)cc1 (stereo not drawn) | 10 | -8 | -7 | . | . | 0 | -6 | i
Cc1cc(C)cc(N(CC(=O)N2CCC(C)CC2)S(=O)(=O)c2ccccc2)c1 | 12 | -3 | -3 | -2 | 18 | -69 | 4 | i
CCS(=O)(=O)N1CCC(C(=O)OCC(=O)c2ccc(Br)cc2)CC1 | . | 4 | 4 | -17 | 18 | -108 | . | i
O=C(c1ccccc1)c1ccc(OCC(O)CN2CCN(Cc3ccccc3)CC2)cc1 (stereo not drawn) | -5 | 6 | -6 | -13 | -3 | -44 | 1 | i
O=C(OCC(=O)N1CCC(Cc2ccccc2)CC1)c1ccccc1O | . | 2 | -4 | -18 | -2 | 3 | . | .
Cc1onc(-c2ccccc2Cl)c1C(=O)NCc1ccccc1 | 3 | -3 | -9 | -13 | -7 | . | 4 | i
CC(NS(=O)(=O)c1ccc(Br)cc1)C(=O)NC1CCCCCC1 (stereo not drawn) | -2 | 1 | 3 | -4 | -2 | 6 | -2 | i
COc1ccccc1NC(=O)c1ccc2c(c1)C(=O)N(c1ccccc1OC)C2=O | 1 | 9 | 2 | -11 | -8 | 0 | -11 | i
Cc1ccc(C)c(-c2csc(N/N=C/c3ccco3)n2)c1 | 5 | 2 | -2 | . | -4 | -2 | 2 | i
CC1(C)Cc2ccccc2C(COc2ccccc2)=N1 | 3 | -4 | -1 | 2 | -6 | 20 | 13 | i
Clc1ccc(Br)c(-c2nc3ccccc3[nH]2)c1 | . | -1 | 4 | -36 | . | -27 | . | .
O=C(C[C@H]1C[C@H](C(=O)N2CCOCC2)[C@@]2(CCC3CCCC3)c3[nH]c4ccc(Cl)cc4c3CCN2C1=O)NCC12CC3CC(CC(C3)C1)C2 | . | -24 | -26 | 0 | . | -11 | . | .
Cc1cc(C)c(C(=O)N(C)CC2CCCN(CCc3ccccc3F)C2)o1 (stereo not drawn) | 2 | -1 | 3 | -7 | 4 | 24 | -2 | i
CCC(=O)Nc1ccc(OCc2nnc3c4ccccc4c(C)nn23)cc1 | 4 | 3 | 4 | . | 12 | 9 | 4 | i
CCCc1cc(C(=O)Nc2ccc(CC)cc2)no1 | 12 | 2 | 0 | -21 | 24 | -10 | 0 | i
O=S(=O)(Nc1cccc(-c2ccc(N3CCOCC3)nn2)c1)c1ccc(Cl)c(Cl)c1 | . | 10 | -6 | -6 | 10 | -9 | . | i
OC(c1ccccc1)(c1ccccc1)c1ncc[nH]1 | . | 1 | 1 | -17 | -3 | 12 | . | i
